# Source: PubChem
# KCNQ2 inh – KCNQ2 potassium channel inhibitors, primary screen, cell-based, CHO-K1, FluxOR thallium flux, B-score (AID 2156); 20 min; hits give low values; only compounds with negative scores are shown here; some inactives read as strong as hits; B-score at 10 µM; 310,000 tested, 1.1% active;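 active = fluorescence ratio B-score at most minus 3 library SDs, with starting brightness B-score within 2 library SDs, cut at about -5.5 in these data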
# Target sequence (O88943 whole entry, looked up): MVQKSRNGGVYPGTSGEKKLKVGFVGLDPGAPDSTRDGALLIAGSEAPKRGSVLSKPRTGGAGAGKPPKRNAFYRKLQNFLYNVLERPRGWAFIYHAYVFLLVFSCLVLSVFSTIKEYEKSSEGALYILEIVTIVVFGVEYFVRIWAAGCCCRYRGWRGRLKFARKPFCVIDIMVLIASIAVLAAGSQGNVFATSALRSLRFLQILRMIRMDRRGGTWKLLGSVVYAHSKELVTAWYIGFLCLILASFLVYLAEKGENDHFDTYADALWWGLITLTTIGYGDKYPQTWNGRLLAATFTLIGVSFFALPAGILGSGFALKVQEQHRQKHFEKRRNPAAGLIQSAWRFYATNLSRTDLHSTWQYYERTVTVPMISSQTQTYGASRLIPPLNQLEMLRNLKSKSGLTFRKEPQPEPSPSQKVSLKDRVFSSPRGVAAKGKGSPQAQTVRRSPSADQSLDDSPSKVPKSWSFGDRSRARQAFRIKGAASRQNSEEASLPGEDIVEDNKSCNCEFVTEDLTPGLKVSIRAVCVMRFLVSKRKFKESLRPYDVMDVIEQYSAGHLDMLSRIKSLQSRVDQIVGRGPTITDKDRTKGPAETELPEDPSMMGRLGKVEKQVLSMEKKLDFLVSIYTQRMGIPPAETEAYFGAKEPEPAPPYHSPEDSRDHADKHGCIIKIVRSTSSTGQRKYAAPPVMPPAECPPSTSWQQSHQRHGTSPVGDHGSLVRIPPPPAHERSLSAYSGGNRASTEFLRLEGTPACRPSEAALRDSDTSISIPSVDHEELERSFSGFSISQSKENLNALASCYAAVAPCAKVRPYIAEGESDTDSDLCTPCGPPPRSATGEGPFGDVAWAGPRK
# KCNQ2 inh baseline – also measured in KCNQ2 inh; calls as there; B-score; measured here: initial fluorescence intensity artifact check;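 brightness before thallium and not channel activity; 0 = typical well and far values either way flag optical interference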
# * = called active by the depositor; i = inactive.
cpd	KCNQ2 inh baseline	KCNQ2 inh	SMILES
1	-0.32	i	CC(Sc1nc2ccccc2c(=O)n1Cc1ccco1)C(=O)c1ccccc1 (stereo not given)
2	0.22	i	Cc1ccc(C(=O)N2CCCC(Nc3ccc(F)c(F)c3)C2)cn1 (stereo not given)
3	2.7	i	CC(=O)N(O)CCCCCNC(=O)CCC(=O)N(O)CCCCCNC(=O)CCC(=O)N(O)CCCCCN
4	0.85	i	COc1ccc(C(C)=O)cc1CSc1nnc(Nc2ccc(C)cc2C)s1
5	-0.92	i	C/C(=N\NC(=S)Nc1ccccc1C)c1ccc(O)cc1
6	-0.18	i	O=C(Nc1ccccc1)N(Cc1ccccc1)CC(O)C(F)(F)F (stereo not given)
7	0.89	i	O=C(NCCCN1CCOCC1)c1cccnc1
8	-0.94	i	COc1ccc(-c2ccc(SC)nn2)cc1
9	0.48	i	CCN1CCN(c2ccc(S(=O)(=O)N3CCCCC3)cc2NC(=O)Cc2ccccc2)CC1
10	-0.03	i	CCn1c(CNc2ccc(C)cc2C)nnc1SCC(=O)N1CCCc2ccccc21
11	-0.97	i	Cc1nc2ccccc2c2oc(C(=O)NCCCN3CCCC(C)C3)cc12 (stereo not given)
12	0.32	i	CCOc1ccccc1N1CCN(C(=O)c2cc3c(s2)CCC3)CC1
13	-0.39	i	O=C(Nc1nc(-c2ccccc2)cs1)c1ccc2c(c1)S(=O)(=O)c1ccccc1C2=O
14	-0.13	i	Cc1ccc(NC(=O)N2CCCC2C(=O)NCc2ccc(Cl)cc2)cc1 (stereo not given)
15	0.72	i	Cc1ccc(C(=O)Nc2ccccc2Oc2ccccc2)o1

# Among those listed so far, these have four or more nitrogen atoms.
cpd	KCNQ2 inh baseline	KCNQ2 inh	SMILES
3	2.7	i	CC(=O)N(O)CCCCCNC(=O)CCC(=O)N(O)CCCCCNC(=O)CCC(=O)N(O)CCCCCN
9	0.48	i	CCN1CCN(c2ccc(S(=O)(=O)N3CCCCC3)cc2NC(=O)Cc2ccccc2)CC1
10	-0.03	i	CCn1c(CNc2ccc(C)cc2C)nnc1SCC(=O)N1CCCc2ccccc21

# Additional entries.
cpd	KCNQ2 inh baseline	KCNQ2 inh	SMILES
16	-0.24	i	CCc1ccccc1NS(=O)(=O)c1ccc2[nH]cc(C(=O)NC3CCCC3)c(=O)c2c1
17	-0.65	i	COc1cc(NS(=O)(=O)c2ccc(Br)s2)cc(OC)c1
18	-1.3	i	Cc1cc(C)n(-c2nc3ccccc3c(=O)n2OCC(N)=O)n1
19	0.19	i	Cc1ccc(-n2c(SCC(=O)Nc3ncc(Cl)cc3Cl)nc3ccccc32)cc1
20	0.6	i	O=C(NCc1cccnc1)c1cn(-c2ccccc2)nc1-c1ccccc1
21	-0.83	i	CCOc1ccc(N2CC(C(=O)Nc3ccncc3)CC2=O)cc1 (stereo not given)
22	-0.68	i	COc1cccc(C(=O)CC(C#N)c2ccc(F)cc2)c1 (stereo not given)
23	-2	i	CCCc1[nH]nc2c1C1(CCN(C(=O)OCc3ccccc3)CC1)C(C#N)=C(N)O2
24	-1.1	i	CN1CCc2c(OCC(=O)N3CCC(Cc4ccccc4)CC3)cccc2C1=O
25	0.01	i	COC(=O)C(C(=O)Nc1nc2ccccc2s1)C1CCCC1 (stereo not given)
26	-0.3	i	Cc1ccn(S(=O)(=O)c2ccc(N3CCCC3=O)cc2)n1
27	-1.7	i	COc1ccc(-c2nc3ccccc3n2CCC(C)C)cc1OC
28	2.3	i	CCOc1ccccc1N(CC(=O)NC1CCCC1)S(=O)(=O)c1ccc(C)cc1
29	-1.4	i	O=C(NCc1ccc(Cl)cc1)c1cccc2c1C(=O)N(CC1CCCO1)C2 (stereo not given)
30	1.8	i	CC(C)=C1Cc2ccccc2C1=O
31	-0.02	i	CCC1CCCCN1C(=O)c1cc(-c2ccc(Cl)c(Cl)c2)on1 (stereo not given)
32	0.21	i	CN1CCN(c2ccc(NC(=O)c3ccc(Cl)cc3Cl)cc2)CC1
33	1.5	i	Cc1cn(C2OC(COC(=O)c3ccccc3)C(O)C2Cl)c(=O)[nH]c1=O (stereo not given)
34	-1.2	i	Cc1cc(NC(=O)c2ccc(S(=O)(=O)N(C)CC3CCCO3)cc2)no1 (stereo not given)
35	0.41	i	COc1ccnc(Oc2ccccc2)c1-c1ncn[nH]1
36	3.8	i	Cc1nc(-c2cc(C#N)c(Sc3ccc(Cl)cc3Cl)nc2C)cs1
37	-0.73	i	COc1ccc(S(=O)(=O)N2CCN(C(=O)c3cc(-c4ccc(Br)cc4)n[nH]3)CC2)cc1OC
38	0.97	i	Nc1nc(-c2ccc(Cl)cc2)c(S(=O)(=O)c2ccccc2)s1
39	-0.11	i	O=C(NCCN1CCOCC1)c1c(O)nc2ccccn2c1=O
40	-1.1	i	Cc1ccc(NC(=O)Cn2c([N+](=O)[O-])cnc2C)cc1
41	-2.6	i	N#C/C(=C/c1ccc([N+](=O)[O-])cc1)C(=O)Nc1ccccc1O
42	2.5	i	Fc1ccccc1-c1ccc(/C=N/Nc2nc3ccccc3[nH]2)o1
43	2.2	i	COC(=O)C1=C(C)N2C(=O)CSC2=NC1c1ccc2c(c1)OCO2 (stereo not given)
44	-0.91	i	COc1cccc(C2=NNC(=NCc3ccccc3)SC2)c1
45	-2.3	i	COCCCNC(=O)/C=C1\Sc2ccccc2N(Cc2ccccc2F)C1=O
46	-1.6	i	COc1cccc(-c2nc(NCC3CCCO3)c3ccccc3n2)c1O (stereo not given)
47	0.87	i	CCN(C(=O)COC(=O)/C=C/c1c(C)nn(Cc2ccc(C)cc2)c1C)C1CCS(=O)(=O)C1 (stereo not given)
48	-0.68	i	CC(C)CCOP(=O)(c1ccc(N(C)C)cc1)C(O)c1ccc(C(C)C)cc1 (stereo not given)
49	-2.3*	-7*	CC(C)(C)N(Cc1ccccc1)C(=O)COC(=O)c1cccc([N+](=O)[O-])c1
50	-1.1	i	COc1ccccc1NC(=O)CSc1nc2nc(C)cc(C)c2c(=O)[nH]1
51	0.56	i	O=C(/C=C/c1ccccc1)NC(NC(=S)Nc1cc(Cl)ccc1Cl)C(Cl)(Cl)Cl (stereo not given)
52	2	i	CCC(=O)c1ccccc1OCCN1CCN(CC)CC1
53	1.2*	-7.7*	COc1cc(OC)cc(C(=O)N[C@H](C(=O)OCc2cc(=O)oc3cc(C)ccc23)C(C)C)c1
54	0.25	i	Cn1c(=O)c2c(ncn2Cc2nnc(N)s2)n(C)c1=O
55	1.4	i	CC(C)CCn1c(O)c(N=NC(=O)c2ccco2)c2ccccc21
56	-0.16	i	CC(=O)NC(=S)Nc1ccc(NC(=O)c2cccnc2Cl)cc1
57	1.2	i	COc1ccc(CNC(=O)CCS(=O)(=O)c2ccc3c(c2)NC(=O)C(C)S3)cc1 (stereo not given)
58	2.9	i	O=[N+]([O-])c1ccccc1N(CC1CO1)S(=O)(=O)c1ccccc1 (stereo not given)
59	-0.43	i	COC(=O)CSc1nnc([C@H](CC(C)C)NC(=O)OC(C)(C)C)o1
60	-3.4	i	Cc1ccccc1-c1nc(S(=O)(=O)c2ccc(Br)cc2)c(NCc2cccnc2)o1
61	-0.86	i	CCOC(=O)c1c(CN2CCOCC2)n(-c2ccccc2)c2cc(Br)c(O)cc12
62	-0.01	i	CCS(=O)(=O)N1CCN(S(=O)(=O)c2ccc(S(=O)(=O)NC3CC3)cc2)CC1
63	0.12	i	O=C(/C=C/Nc1ccccc1C(=O)O)c1cccs1
64	-0.41	i	Cc1noc(C)c1COC(=O)c1ccc(-c2nc3ccccc3s2)s1
65	-0.32	i	COc1ccc(Cl)cc1NC(=O)CN(C)C(=O)Cc1ccc2c(c1)CCC2
66	2.5	i	CCOC(=O)c1c(-c2ccccc2)csc1NC(=S)NC(=O)c1ccccc1
67	0.17	i	CN(Cc1ccccc1)C(=O)Cn1cccc1C(=O)c1ccccc1
68	0.15	i	CCCCNC(=O)Nc1cc(C)on1
69	0.83	i	COc1ccccc1C(=O)NC(=O)CSc1nnc(C)s1
70	-1.7	i	Cc1cccnc1NC1(C(F)(F)F)N=C2SCCN2C1=O (stereo not given)
71	-1.2	i	COc1cccc(C2C(C(C)=O)=C(O)C(=O)N2CCNCCO)c1 (stereo not given)
72	1.4	i	O=C(NNC(=O)C1CCCN(S(=O)(=O)c2cccc(F)c2)C1)C1CC1 (stereo not given)
73	0.15	i	CC(C)n1cc(C(=O)N2CCCC(N3CCN(c4cccc(Cl)c4)CC3)C2)cn1 (stereo not given)
74	-1.3*	-5.6*	CCc1ccc2c(CN3CCc4ccccc43)cc(=O)oc2c1
75	0.05	i	CC(C)(O)P(=O)(O)CCc1ccccc1

# Molecules shown so far that contain bromine, in the order listed:
cpd	KCNQ2 inh baseline	KCNQ2 inh	SMILES
17	-0.65	i	COc1cc(NS(=O)(=O)c2ccc(Br)s2)cc(OC)c1
37	-0.73	i	COc1ccc(S(=O)(=O)N2CCN(C(=O)c3cc(-c4ccc(Br)cc4)n[nH]3)CC2)cc1OC
60	-3.4	i	Cc1ccccc1-c1nc(S(=O)(=O)c2ccc(Br)cc2)c(NCc2cccnc2)o1
61	-0.86	i	CCOC(=O)c1c(CN2CCOCC2)n(-c2ccccc2)c2cc(Br)c(O)cc12

# New compounds follow
cpd	KCNQ2 inh baseline	KCNQ2 inh	SMILES
76	0.59	i	CNc1c(NS(=O)(=O)c2ccc(Br)cc2)c(=O)oc2ccccc12
77	1.5	i	CC(C)C(=O)N1CCC(c2nc(-c3ccc(S(=O)(=O)N4CCN(C)CC4)cc3)no2)CC1
78	0.56	i	COc1cccc(C=NCCCN=Cc2cccc(OC)c2O)c1O
79	2.6	i	COc1ccc(C(=O)C2CCCN(C(=O)c3n[nH]c4c3CCCC4)C2)cc1OC (stereo not given)
80	-1.7	i	CC1CCCCC12NC(=O)N(CC(=O)Nc1ccc(S(=O)(=O)N3CCOCC3)cc1)C2=O (stereo not given)
81	-0.22	i	CCCCn1c(SCC(=O)c2cc(OC)ccc2OC)nc2cc(S(N)(=O)=O)ccc21
82	0.39	i	CCOc1ccc(-c2nnc(-c3snc(-c4ccc(F)cc4)c3N=CN(C)C)o2)cc1
83	1.3	i	COc1ccc(Cl)cc1C(=O)CSc1nnnn1C1CCCCC1
84	-2.5	i	Cc1onc(-c2ccccc2)c1C(=O)N1CCN(S(=O)(=O)c2ccccc2Br)CC1
85	0.74	i	CC(c1ccon1)N(C)Cc1cn[nH]c1-c1ccc(-c2ccccc2)cc1 (stereo not given)
86	0.3	i	CC(C)c1csc(CN2CCC(CCC(=O)NCC3CCCO3)CC2)n1 (stereo not given)
87	0.13	i	Cc1nc(S/C(=C/c2ccc(-c3cccc(Cl)c3)o2)C(=O)O)n[nH]1
88	0.87	i	CCOc1ccc(CCNC(=O)COC(=O)c2ccc3c(c2)OCCO3)cc1OCC
89	0.85	i	CNCc1cc2ccc(C)cc2[nH]c1=O
90	-1.6	i	O=C(c1ccco1)N1CCN(S(=O)(=O)c2ccc(Br)s2)CC1
91	0.72	i	CCCCN(CCCC)c1cc(C)nc(-c2ccccc2O)n1
92	-2	i	COc1ccccc1N1CCN(S(=O)(=O)c2ccc3c(c2)n(C)c(=O)n3C)CC1
93	0.01	i	CCOC(=O)C(NC(=O)CC)(Nc1sc(C)c(CC)c1C#N)C(F)(F)F (stereo not given)
94	-0.2	i	Cc1ccc(CNC(=O)C2CCCN(S(=O)(=O)c3cccnc3)C2)cc1 (stereo not given)
95	1.7	i	c1ccc(Cn2nnc3c(N4CCc5ccccc54)ncnc32)cc1
96	-2.7*	-5.9*	CCOC(=O)N1CCN(CC(=O)Nc2sc(CC)cc2C(=O)c2ccc(OC)cc2)CC1
97	-1.7	i	COc1cc(C)nc(N(Cc2ccccc2)S(=O)(=O)c2ccc(C)cc2)n1
98	3.5	i	O=C(NCCCn1ccnc1)c1cc2c(ccc3ccccc32)o1
99	-0.34	i	Cc1cc(=O)[nH]c(COc2ccccc2)n1
100	0.64	i	COc1ccc(S(=O)(=O)NNC(=O)C2COc3ccccc3O2)cc1[N+](=O)[O-] (stereo not given)
101	0.02	i	CSCCC(NS(=O)(=O)c1ccccc1F)C(=O)N1CCCCCCC1 (stereo not given)
102	0.02	i	Cc1cc(C)n(Cc2ccc(Cl)cc2Cl)c(=O)c1S(=O)(=O)c1ccccc1
103	-1.2	i	COc1cc(/C=C2\CC/C(=C\c3cc(OC)c(OC)c(OC)c3)C2=O)cc(OC)c1OC
104	-0.8	i	Cc1ccc(/C=N/n2c(-c3ccco3)n[nH]c2=S)s1
105	1	i	COc1ccc(Br)cc1S(=O)(=O)N(CC(=O)N1CCN(C)CC1)c1ccccc1

# 2 of these compounds, set out differently:
# Order of values: KCNQ2 inh baseline | KCNQ2 inh
(92) COc1ccccc1N1CCN(S(=O)(=O)c2ccc3c(c2)n(C)c(=O)n3C)CC1
  -2 | i
(93) CCOC(=O)C(NC(=O)CC)(Nc1sc(C)c(CC)c1C#N)C(F)(F)F (stereo not given)
  0.01 | i

# (continued)
cpd	KCNQ2 inh baseline	KCNQ2 inh	SMILES
106	-0.1	i	COc1ccc(N2CCN(C3CCCN(S(=O)(=O)c4ccc(C)cc4C)C3)CC2)cc1 (stereo not given)
107	1.4	i	Cc1ccc(NC(=O)c2cc(Cl)nc3ccccc23)cc1
108	2.2	i	Cc1cc(OCC(=O)O/N=C(\N)c2ccccc2)cc(C)c1Cl
109	1.8	i	N#Cc1cn(CCOc2ccccc2F)c2ccccc12
110	0.18	i	COc1ccc(CNc2nc(SCC(=O)NCc3ccco3)nc3ccccc23)cc1
111	-0.96	i	COCc1cc(=O)n2[nH]c(SCc3ccccc3)nc2n1
112	1.6	i	CCCC(=O)OCC(=O)Nc1ccccc1C#N
113	-0.16	i	COc1cccc(N2CCN(S(=O)(=O)c3ccc(-n4cnnn4)cc3)CC2)c1
114	1.7	i	CC(CS(=O)(=O)c1cccc2cccnc12)N1CCCCC1 (stereo not given)
115	1.4	i	COc1ccc(NC(=O)c2cc(C)nc3ccccc23)c(OC)c1
116	-1.5	i	Cc1ccc(-c2nn(-c3ccccc3)cc2CNCc2ccccc2)cc1
117	-0.3	i	COc1ccc(-n2c(=S)[nH]c3ncccc3c2=O)cc1
118	0.85	i	CC(C)=CCCC(C)CN1CCC(n2nccc2NC(=O)c2ccc3c(c2)OCO3)CC1 (stereo not given)

# A portion of the library; count on the stated rates, not on these rows.
